Bioassay records (PubChem)
Rango complex inh – prevents formation of the Rango-importin beta complex | Q14974 | Rango CFP/YFP FRET sensor + importin beta, 45 min | Potency, µM (series often up to 92.2 µM), for the others: at the top dose inhibition of complex formation | actives 0.031% (n = 340,000) | AID 540263; active = rising FRET ratio curve, often small or poorly fitted; inconclusive = mostly compound fluorescence or quenching in the first reads; inactive = flat curves in all reads;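 also: potency is read from the fitted curve at half-maximal effect; 0% = DMSO wells and 100% = buffer wells lacking importin beta; nearly all actives have a fitted effect of over 15% in size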
Target sequence (Q14974 whole entry, looked up): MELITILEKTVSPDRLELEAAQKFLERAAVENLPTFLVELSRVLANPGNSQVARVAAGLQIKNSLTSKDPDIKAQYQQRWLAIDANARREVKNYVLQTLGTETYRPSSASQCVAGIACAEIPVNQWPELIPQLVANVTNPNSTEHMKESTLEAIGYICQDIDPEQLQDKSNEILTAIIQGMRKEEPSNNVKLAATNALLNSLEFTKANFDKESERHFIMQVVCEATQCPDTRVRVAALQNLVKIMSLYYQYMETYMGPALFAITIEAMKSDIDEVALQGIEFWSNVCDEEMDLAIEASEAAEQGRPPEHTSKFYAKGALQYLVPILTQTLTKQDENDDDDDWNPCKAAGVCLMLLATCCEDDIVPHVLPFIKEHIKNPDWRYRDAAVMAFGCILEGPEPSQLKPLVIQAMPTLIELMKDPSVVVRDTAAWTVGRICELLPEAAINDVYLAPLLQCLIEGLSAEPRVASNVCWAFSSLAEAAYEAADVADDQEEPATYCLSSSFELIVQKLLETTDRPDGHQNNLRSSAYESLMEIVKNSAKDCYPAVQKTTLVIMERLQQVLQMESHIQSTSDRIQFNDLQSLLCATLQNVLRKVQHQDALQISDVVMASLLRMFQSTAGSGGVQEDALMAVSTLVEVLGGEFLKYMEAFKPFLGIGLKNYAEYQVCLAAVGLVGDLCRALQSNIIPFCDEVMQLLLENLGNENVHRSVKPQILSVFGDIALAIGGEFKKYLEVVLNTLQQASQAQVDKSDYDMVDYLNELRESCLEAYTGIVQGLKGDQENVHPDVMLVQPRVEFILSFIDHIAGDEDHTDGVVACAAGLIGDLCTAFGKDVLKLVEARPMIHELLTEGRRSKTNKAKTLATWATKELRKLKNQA
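Inhibition scored from the CFP 486 nm/YFP 530 nm FRET ratio 45 min after adding 0.125 microM importin beta to 50 nM Rango biosensor preincubated 5 min with compound (room temperature, PBS with DTT, Tween-20, BSA). No-importin wells as positive control.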
GLA inh pH 4.5 – inhibitors of human alpha-galactosidase A at pH 4.5. 230,000 tested, under 10 active. purified enzyme, 4-MU-alpha-Gal fluorescence, pH 4.5. activity change, negative = inhibition, % at 105 µM. AID 1467. P06280; inconclusive = small, poorly fitted or top-dose-only inhibition, or a rising curve; inactive = flat fitted curve, though single readings scatter; no compound was filed as active;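 also: 0% = full activity with enzyme and -100% = basal without enzyme; dose as in the result columns while the protocol names 77 µM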
Rango dissoc inh – inhibition of RanGTP-driven Rango-importin beta dissociation | Potency, µM (doses to about 46.1 µM), inactives show at the top dose activity change, negative = inhibition | actives 0.071% (n = 340,000) | AID 540253 | Biochemical FRET Rango-importin beta, RanGTP-induced dissociation; active means falling FRET ratio curve, often poorly fitted, with flat reads before Ran was added; inconclusive means other falling curves, or compound fluorescence or quenching; inactive means flat or rising ratio curve;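 also: potency is read from the fitted curve at half-maximal effect; % of control where 0% means no effect; nearly all actives have a fitted effect of over 45% in size; -100% = wells without RanGTP and RCC1; the record marks most hits as doubtful in a second field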
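Compounds preincubate 5 min with complex of recombinant Rango and importin beta in PBS with 1 mM DTT. Ran (0.6 uM) loaded with 2 mM GTP plus 0.2 uM RCC1 starts dissociation; FRET is recorded 45 min later.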
miR-21 FLuc – raises the signal of a miR-21 reporter. HeLa miR-21 FLuc reporter, luciferase, 48 h. Potency, µM (doses to about 38.3 µM), without a hit: at the highest dose reporter change, positive = more light. 340,000 tested, under 10 active. AID 2288; active = well fitted rising curve with a large enough effect; inconclusive = small, poorly fitted or top-dose-only effect; inactive = no such curve, though single readings can be large or run the other way;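 also: % of control where 0% means no effect; miR-21 action dims this reporter so a rising signal means less miR-21 action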
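Luminescence from a firefly luciferase reporter carrying a miR-21 binding site downstream, stably expressed under a CMV promoter in HeLa cells that make miR-21 endogenously, reports miRNA modulation after 48 h compound exposure up to approximately 40uM final.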
The depositor's hits bear a star; ? = inconclusive; . = no result given; & = joins results of further samples; [ ] = another dose, or the depositor's remark. Not all compounds are listed, so the mix of outcomes need not match the whole.

Each structure is followed by: Rango complex inh	GLA inh pH 4.5	Rango dissoc inh	miR-21 FLuc
CC(=O)NCCN1C(=O)S/C(=C\c2cccs2)C1=O
→ -1.8%	-0.1	4.4%	-23.5%
CCN(CC)C(=O)CN(c1cc(Cl)ccc1OC)S(C)(=O)=O
→ 0.7%	1.9	-6.1%	0.6%
N/C(=N\OC(=O)c1ccc(Cl)cc1Cl)c1ccccn1
→ -1.9%	-0.8	-8.3%	?
CN(C)c1ccc(C(=O)Nc2nnc(C3=COCCO3)o2)cc1
→ -7.3%	-13.7	9.3%	-42.0%
OCCC1CN(Cc2cc3ccccc3o2)CCN1Cc1ccc(F)cc1 (stereo not drawn)
→ -2.4%	.	9.0%	-1.9%
N#C/C(=C\c1ccc(-c2ccc(S(=O)(=O)N3CCOCC3)cc2)o1)C(=O)NC1CC1
→ ?	-4.2	?	3.5%
O=S(=O)(c1cccc(Cl)c1Cl)N1CCCCC1
→ 0.2%	1.7	-10.8%	-13.8%
Cc1cc(-c2nc3cccnc3s2)ccc1NS(=O)(=O)c1ccc2c(c1)OCCO2
→ ?	?	?	-16.2%
O=C1c2ccccc2C(Nc2ccc(S(=O)(=O)N3CCOCC3)cc2)N1c1cccnc1 (stereo not drawn)
→ -3.9%	0.9	-10.4%	-0.7%
COc1ccc(/C=C2/N=C(SCC(=O)Nc3cc(C)on3)N(c3ccccc3)C2=O)cc1
→ ?	5.4	?	-3.6%
c1nnc(-c2ccc3c(c2)OCO3)o1
→ -3.0%	-15.6	-16.2%	-1.3%
COc1cc(NC(=O)CN(c2ccc(C)cc2)S(=O)(=O)c2c(C)nn(C)c2C)cc(OC)c1
→ ?	0.7	-1.2%	0.5%
CCCCSc1nnc([C@H](C)NC(=O)OC(C)(C)C)o1
→ -1.2%	4.1	11.8%	-9.0%
Cc1c(NC(=O)C(C)OC(=O)c2ccc(Cl)nc2)c(=O)n(-c2ccccc2)n1C (stereo not drawn)
→ -1.3%	1.9	-2.7%	0.7%
Cc1cccc(C)c1-n1nnnc1C1(Nc2ccccc2)CCCCC1
→ 5.5%	-1.4	4.1%	7.3%
CCCCNC(=O)N1CCN(c2ncccn2)CC1
→ -1.6%	4.7	0.7%	-3.4%
O=C(CCc1nnc2ccc(N3CCC4(CC3)OCCO4)nn12)NCc1ccc(F)cc1
→ -1.4%	.	-28.5%	-3.3%
COCc1nc2c([nH]1)c(=O)n(C)c(=O)n2CC(C)C
→ 0.9%	-3.7&2.4	-7.8%	.
O=C1CS/C(=C\S(=O)(=O)c2ccc(Cl)cc2)N1
→ ?	-1.4	-16.4%	-2.6%
O=C(Nc1ncc(Cc2ccc(SC(F)F)cc2)s1)c1ccccc1
→ -3.2%	3.6	-1.0%	2.2%
Cc1cccc(OCC(=O)N2CCCc3ccccc32)c1
→ -1.0%	-3.5	19.0%	-15.7%
Cc1cc(C(=O)Nc2ccccc2C(=O)O)ccc1NC(=O)COc1cccc([N+](=O)[O-])c1
→ -2.0%	-4.8	41.1%	-1.3%
S=c1[nH]nc(-c2ccc3c(c2)OCO3)n1-c1ccccc1
→ 5.3%	0.0	2.4%	-4.7%
COc1ccccc1C(=O)Nn1c(-c2cccs2)nc2ccccc2c1=O
→ ?	3.8	5.9%	-10.4%
Cc1ccc2cc(C)c(NCCO)nc2c1
→ 0.4%	1.4	-13.4%	-10.0%
Cc1ccnc(NS(=O)(=O)c2cccc3nsnc23)c1
→ 1.8%	-3.2	1.2%	-0.1%
CCOc1ccc(NCc2cccn2-c2nnc(N3CCC(C(=O)NCCCN4CCCCC4CC)CC3)s2)cc1 (stereo not drawn)
→ 3.9%	.	0.6%	-14.2%
COc1ccc(C(C(=O)NC(C)(C)C)N(CCC(C)C)C(=O)CCC(=O)Nc2cc(C)on2)cc1 (stereo not drawn)
→ -0.5%	.	0.5%	5.8%
O=C(O)CCC(=O)Nc1nc2ccc([N+](=O)[O-])cc2s1
→ -1.8%	-14.4	-6.5%	-0.6%
CCCCN(C)CCNC(=O)CSCc1ccc(C)cc1
→ -2.3%	1.6	3.1%	-3.7%

New compounds follow.
Each structure is followed by: Rango complex inh	GLA inh pH 4.5	Rango dissoc inh	miR-21 FLuc
CCOC(=O)/C(=N\Nc1ccccc1[N+](=O)[O-])c1csc(Nc2ccccc2)n1
→ 0.3%	-10.3	3.8%	-2.6%
CSCCC1NC(=O)N(CC(=O)Nc2cccc3ccccc23)C1=O (stereo not drawn)
→ 0.3%	-2.4	10.2%	-1.3%
COc1cccc(C(=O)NCCC(=O)NCc2cc(=O)n(C)c(=O)n2C)c1
→ -1.2%	.	-1.1%	1.2%
O=C1NC(N2CCOCC2)=N/C1=C/c1ccc2c(c1)OCO2
→ ?	-3.2	?	8.3%
COc1cc(CCC(=O)NNC(=O)c2ccc(C)cc2)cc(OC)c1OC
→ -0.2%	-10.9	-11.0%	-2.1%
CCCC(=O)Nc1ccc(Cl)c(NC(=S)NC(=O)c2cc3ccccc3o2)c1
→ 2.8%	7.6	1.7%	-0.8%
Cc1ccc(-n2c(-c3cnccn3)n[nH]c2=S)cc1
→ 0.4%	2.2	-0.5%	-0.6%
CCCCCNC(=O)C1CCC(Cn2c(=S)[nH]c3ccccc3c2=O)CC1 (stereo not drawn)
→ -0.1%	5.7	-0.2%	-0.5%
CN(N)c1nc(-c2ccccc2)cc(-c2ccccc2)n1
→ 1.5%	.	9.4%	16.9%
Cc1ccsc1C(=O)NCC(C)(C)N1CCOCC1
→ 1.5%	.	-1.8%	.
COC(=O)c1c(C)[nH]c(C(=O)/C=C/c2ccc(Cl)cc2)c1C
→ -0.2%	-22.3	16.0%	-21.7%
C/C(=C\c1ccccc1)C(=O)c1c(C)cc(C)[nH]c1=O
→ -3.6%	-0.4	-13.6%	1.3%
Cc1ccn(CC(=O)O)c(=O)c1
→ -0.7%	4.3	29.3%	3.9%
CSc1nnc2c(n1)OC(c1cn(C)c3ccccc13)N(C(C)=O)c1ccccc1-2 (stereo not drawn)
→ -1.7%	-21.7	0.2%	-3.0%
Cc1cc(OCCCC(=O)NCCN2C(=O)S/C(=C\c3cccnc3)C2=O)ccc1Cl
→ -0.6%	-2.6	-0.5%	-5.2%
COCCn1c(=NC(=O)c2ccc(S(=O)(=O)N3CCCc4ccccc43)cc2)sc2cc(S(C)(=O)=O)ccc21
→ 2.2%	-7.6	4.9%	-1.0%
O=c1c2c(-c3ccccc3)csc2ncn1/N=C/c1cccc([N+](=O)[O-])c1O
→ -2.5%	-14.0[21.1 µM]	-6.5%	0.7%
O=C(/N=C1\NC(=O)C(F)(C(F)(F)F)S1)NC1CCCCC1 (stereo not drawn)
→ 0.1%	-5.4	15.4%	-3.8%
O=c1c2cc(NC(=S)NC3CCCC3)ccc2nc2n1CCCCC2
→ 4.0%	-11.9	-15.8%	-25.8%
COC(=O)c1c(NC(=O)CSc2nnnn2-c2ccccc2)sc2c1CCC(C)C2 (stereo not drawn)
→ 2.8%	2.2	11.7%	-8.5%
O=C(O)C1=C[C@H](C2CC2)C[C@H](OCCCCO)O1
→ 4.1%	-5.0	4.9%	1.0%
CNc1nc2ccccc2n1CC(=O)c1ccccc1
→ -0.3%	.	-6.9%	-46.6%
CCC1(C)Cc2c(sc3nc4n(c(=O)c23)CCCS4)CO1 (stereo not drawn)
→ 0.2%	.	1.2%	.
CCOc1ccc2nc(N3C(=O)/C(=C/c4ccccc4)NC3=S)sc2c1
→ -2.0%	-6.8	-8.7%	-54.6%
COc1cc([N+](=O)[O-])cc(/C=N/NC(=O)C(C)Nc2ccccc2C)c1O (stereo not drawn)
→ -2.8%	-9.5	-4.4%	1.3%
CN1c2ccccc2N(C)C1(C)c1ccccc1
→ ?	-3.4	?	3.6%
C=CCNC(=O)COC(=O)c1cccnc1Nc1ccccc1F
→ 0.4%	0.4	0.4%	-13.2%
O=C(Cc1ccc(Cl)cc1)NCCc1c[nH]c2ccccc12
→ -1.7%	.	-15.8%	.
O=C(c1ccc(Br)cc1)c1cc2ccc(O)cc2oc1=O
→ ?	.	?	-15.0%
CCN(Cc1ccccc1)C(=O)c1ccccc1C
→ -0.4%	-7.3	9.8%	-6.9%

Remaining list, next part:
Each structure is followed by: Rango complex inh	GLA inh pH 4.5	Rango dissoc inh	miR-21 FLuc
CC(C)(C)c1ccc(C(=O)N/N=C/c2ccc(OCCCF)cc2)cc1
→ 5.3%	5.1	16.0%	-0.6%
COc1ccc(C2/C(=C(/O)c3ccc(C)cc3)C(=O)C(=O)N2c2ccccn2)cc1OC (stereo not drawn)
→ 8.2%	0.0	-0.4%	-3.5%
O=C(Cn1nc(-c2ccccc2)c2ccccc2c1=O)Nc1cccnc1
→ 0.2%	1.9	15.0%	-8.5%
CS(=O)(=O)N1CCN(C(=O)c2ccccc2F)CC1
→ 0.1%	3.6	0.6%	-4.8%
COc1cccc(Nc2c([N+](=O)[O-])cncc2[N+](=O)[O-])c1
→ -0.3%	.	22.9%	22.9%
Cc1ccc(OC(=O)c2cccc(S(=O)(=O)N3CCCC3)c2)c(-n2nc3ccccc3n2)c1
→ -8.0%	3.3	-17.9%	-60.3%
O=C(COc1ccccc1F)OCC(=O)N1CCc2ccccc21
→ 0.6%	.	37.5%	.
CN(C)CCOc1ccc(Cl)cc1C(C)(C)C
→ 10.4%	-1.8	2.0%	-1.0%
N#Cc1cccc(NC(=O)c2ccc(S(=O)(=O)N3CCOCC3)cc2)c1
→ 0.8%	.	-1.6%	.
Oc1ccc(CCc2n[nH]c(=S)n2-c2ccc(F)cc2)cc1
→ 0.5%	-8.2	3.5%	-3.6%
COc1ccccc1CNC(=O)CN1CCN(Cc2ccc(Cl)cc2)C1=O
→ -0.6%	.	-5.5%	.
COC(=O)c1ccc(NS(=O)(=O)c2cccc3cccnc23)cc1
→ 1.6%	5.3	1.1%	-6.4%
CN(C(=O)c1ccc(NC(=O)C2CCN(C(=O)OC(C)(C)C)CC2)cc1)C1CC1
→ 1.2%	.	-1.1%	.
COc1cc(C2C(C#N)=C(N)Oc3n[nH]c(-c4cccnc4)c32)cc(Br)c1O (stereo not drawn)
→ ?	-2.2	?	6.3%
COc1ccc(/C=N/NC(=O)Cn2ccnc2C)cc1OC
→ -5.2%	-1.6	-2.8%	-0.6%
CCOc1cccc2cc(C(C)=O)oc12
→ 4.3%	4.1	-4.3%	0.7%
Clc1ccc(-c2nnc3n2CCCCS3)cc1
→ -1.4%	-1.2	-15.6%	-4.9%
CC[C@H](C)[C@H](NC(=O)CNC(=O)COc1cc2c(c3oc(=O)cc(C)c13)CCC(C)(C)O2)C(=O)O
→ 0.4%	.	11.3%	-0.7%
CC(=O)NCCn1c(SCC#N)nc2ccccc2c1=O
→ -3.0%	-0.4	-1.9%	-3.5%
OCCCNc1nccc(-c2cc(Nc3cccc(Cl)c3)ncn2)n1
→ 3.9%	-11.3	-13.3%	?
CCOC(=O)c1sc(NC(=O)C2CC(=O)N(c3ccc(OC)cc3)C2)nc1C (stereo not drawn)
→ -3.3%	.	-6.1%	13.0%
COC(=O)c1c(-c2cccc(OC)c2)csc1N
→ 2.6%	8.0	?	-7.6%
COCCCNc1nc2ccccc2[nH]c1=O
→ ?	2.9	-13.7%	6.7%
C=Cc1ccc(COC(=O)c2cn(CC)c3nc(C)ccc3c2=O)cc1
→ 5.8%	.	31.9%	0.3%
COc1cc(CCC(=O)Nc2ccc(S(=O)(=O)NC3=NCCCCC3)cc2)cc(OC)c1OC
→ 1.0%	-27.8	0.0%	5.5%
NS(=O)(=O)c1ccc(NC(=O)Cc2c(F)cccc2Cl)cc1
→ -0.2%	1.3	1.6%	-5.4%
CCCCC(=O)Nc1nc(C)c(-c2csc(Nc3cc(OC)ccc3OC)n2)s1
→ 1.1%	0.4	-17.1%	3.8%
COc1ccc(CC(=O)Nc2cc(S(=O)(=O)N3CCCCC3)ccc2N2CCN(C)CC2)cc1
→ 0.0%	-1.5	-0.6%	-2.8%
S=C(NCc1ccccc1)NNc1ccccc1
→ -0.3%	-6.3	4.2%	-3.7%
COc1ccc(NC(=O)C(c2ccccn2)N(C(C)=O)c2ccc(C)cc2)cc1 (stereo not drawn)
→ 0.3%	-6.0	-3.3%	-24.4%
CCc1noc(C)c1C(=O)N1CCN(S(=O)(=O)c2cccs2)CC1
→ 1.2%	.	-12.0%	.
CC1(C)CC(=O)C=C(c2cccnc2)C1
→ 0.6%	.	1.7%	.
